Tgondii IFNg: blocks Toxoplasma gondii growth in the presence of IFN-gamma. actives 3.8% (n = 69,000). Toxoplasma gondii growth in IFN-gamma-treated host cells; stronger effect = lower value; reference of the scale not given here. activity change, negative = inhibition, %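 (about 20 µM by stock and volumes)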. AID 1259416;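 active = below -70%; inconclusive = fit judged invalid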;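 also: host cells are HeLa cells infected with Toxoplasma gondii; parasite growth read as luciferase light; one replicate is shown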
* marks the source's active call; other numbers are inactive results; i = inactive; ? = inconclusive; ! = not active in a repeat. A portion of the library (hit frequency here may not be typical).

SMILES | Tgondii IFNg
Cc1ccc(NC(=O)N2CCC3(CC2)Nc2ccccc2-n2cccc23)c(Cl)c1 | 339.4
O=S(=O)(c1ccc2c(c1)CCCC2)N1CCC2(CC1)Nc1ccccc1-n1cccc12 | 4.6
Cn1c(=O)c2nc(-c3ccc(I)cc3)oc2c2ccccc21 | -20.4
Cc1nn(C)cc1NC(=O)C[C@H]1CC[C@@H]2[C@@H](COc3ccc(NC(=O)c4cccc(F)c4)cc3C(=O)N2C)O1 | 5.0
Cc1nnc2n(c1=O)C(CS(=O)(=O)c1ccccc1)CS2 (stereo not drawn) | -49.8
Cc1cc(-c2nc(C)c(-c3nnc(SCC(=O)Nc4ccccc4)n3C)s2)no1 | -37.0
O=C1CC2(CCN(C(=O)Cc3ccc4c(c3)OCO4)CC2)CN1 | -56.8
Cc1nnc(SCc2ccccn2)n1CCN1CCOCC1 | 8.1
Fc1cc(F)cc(-c2nc(-c3ccccn3)ncc2-c2nnnn2-c2ccccc2)c1 | 2.6
CN1CCC(NC(=O)c2cc(-c3c(O)cc(O)cc3Oc3ccc([N+](=O)[O-])cc3)on2)CC1 | -35.4
COc1ccc(C2(NC(=O)CC3NC(=O)c4cc(OC)ccc43)CCCCC2)cc1 (stereo not drawn) | -4.7
O=C(Cn1ncc2c(N3CCCCCC3)ncnc21)NC1CCCCC1 | 90.7
Cc1ccc(CN2CCCn3cnc(COCC4CC4)c3C2)s1 | -48.5
CO[C@H]1CN(C)C(=O)c2ccc(NC(C)=O)cc2OC[C@@H](C)N(C(=O)c2cnccn2)C[C@H]1C | -17.3
COc1cc2c(cc1-c1nccn1CCN1CCCOC1=O)CCC2 | 58.9
COc1ccc(S(=O)(=O)N(C)C[C@H]2Oc3ccc(N(C)C)cc3CC(=O)N([C@H](C)CO)C[C@H]2C)cc1 | 2.9
O=C(C1CCC1)N1CCc2cc(-c3csc(C4CC4)n3)ccc21 | -10.3
OC[C@H]1[C@@H](c2ccc(C#Cc3ccccc3F)cc2)[C@H]2CN(CC3CCOCC3)CCCCN21 | -17.6
Cc1c(F)cccc1NC(=O)CNCCc1ccccn1 | 9.2
COc1ccc(C(=O)O/N=C2\CCSc3ccc(F)cc32)cc1 | 80.4
CCS(=O)(=O)N1CCC2(CC1)OC(=O)C(C)=C2C(=O)Nc1cc(Cl)ccc1OC | -0.2
CCN1c2ccccc2C(=O)NC12CCN(C(=O)c1ccccc1OC)CC2 | 33.4
CCOc1ccc(-c2nc(CN3CCN(C(=O)Nc4ccc(F)cc4)CC3)c(C)o2)cc1 | -2.2
CN(C)c1cc(C(=O)Nc2ccccc2OCC2CCCCO2)ccn1 (stereo not drawn) | -8.1
CNC[C@H]1Oc2c(NS(=O)(=O)c3ccc(Cl)cc3)cccc2C(=O)N([C@H](C)CO)C[C@H]1C | 54.2

Two of the compounds above, with tabs:
smiles	Tgondii IFNg
CN1CCC(NC(=O)c2cc(-c3c(O)cc(O)cc3Oc3ccc([N+](=O)[O-])cc3)on2)CC1	-35.4
COc1ccc(C2(NC(=O)CC3NC(=O)c4cc(OC)ccc43)CCCCC2)cc1 (stereo not drawn)	-4.7

Further compounds
SMILES | Tgondii IFNg
CC12CC3CC(C)(C1)CC(C(=O)N1CCCC1c1nc(-c4ccccn4)no1)(C3)C2 (stereo not drawn) | -29.5
COc1ccccc1CN1CCOCC1c1csc(C)n1 (stereo not drawn) | 56.8
c1ccc(-n2ncc3c(NC4CCCCCCCCCCC4)ncnc32)cc1 | 30.1
COc1ccc(OC)c(C(C)NC(=O)CCn2ccc3ccncc32)c1 (stereo not drawn) | -40.9
CC1CCN(c2cc(-n3cnc(C(=O)N4CCC(N5CCCCC5)CC4)c3)ncn2)CC1 | 191.7
COc1ccc(-c2nc(N3CCCCC3)c3ccccc3n2)cc1 | -18.4
CCN(CC)c1ncnc2c1cnn2CC(=O)N1CCN(c2ccccc2)CC1 | 71.0
NC(=O)c1csc(-c2cccc3ccnn23)n1 | -97.6*
CN1C[C@@H](N)C[C@H]1C(=O)NC(C)(C)CNc1cccc(Cl)c1 | 16.2
C[C@@H]1CN([C@H](C)CO)C(=O)c2c(c3ccccc3n2C)-c2ccccc2CO[C@@H]1CN(C)C(=O)[C@H](Cc1ccccc1)N(C)C | -55.2
O=C1CCCN1CC1CCN(C(=O)c2ccc(-c3ccoc3)nc2)CC1 | 244.9
Cc1nn(CC(=O)N2CCCC(C)C2)c(=O)c2nc(-c3ccccc3)sc12 (stereo not drawn) | -27.2
O=C(C1CCOCC1)N1CCC(c2cc(Cc3ccccc3)[nH]n2)CC1 | 6.4
CCCN(CCc1cccs1)[C@H]1CCc2c(O)cccc2C1 | -1.4
CS(=O)(=O)N1CCCC(CCc2ccnc(Nc3ccccn3)c2)C1 (stereo not drawn) | 38.6
CCCNC(=O)N1[C@@H]2CN(C(=O)c3ccncc3)c3ccccc3[C@@H]2[C@@H]1CO | -4.2
O=C1OC(C(F)(F)F)N=C1c1ccccc1 (stereo not drawn) | 24.4
CCOc1ccc(NC(=O)Cn2c(=O)cc(C(=O)N3CCCCC3)c3ccccc32)cc1 | 4.3
COc1ccc2c3c([nH]c2c1)[C@@H](CO)N(S(=O)(=O)c1ccc(C)cc1)CC31CCN(Cc2nccs2)CC1 | -48.8
CN1c2ccc(-c3ccc(C#N)cc3)cc2[C@H]2[C@H](CCN2S(=O)(=O)c2ccc(F)cc2)[C@H]1CO | -24.1
COc1ccc2c3c(n(C)c2c1)[C@@H](CO)N(CC1CC1)CC31CN(C(=O)CC2CC2)C1 | ?
COc1ccccc1CNC(=O)CC1N=C2c3ccccc3N=C(SCc3cc(=O)n4ccccc4n3)N2C1=O (stereo not drawn) | 10.9
CCn1cc(CN2CCN(C(=O)C3(c4ccc(Cl)cc4)CCOCC3)CC2)cn1 | 6.0
CC(C)NC(=O)Nc1cccc2c1O[C@@H](CN(C)C(=O)Nc1ccccc1)[C@H](C)CN([C@H](C)CO)C2=O | -1.1
N#Cc1c(-c2cccs2)oc(N)c1-c1ccc(Cl)cc1Cl | 110.2

Further results follow.
SMILES | Tgondii IFNg
Cc1onc(C(=O)N2CCCC2Cc2c(C(N)=O)sc3ccccc23)c1Cn1cccn1 (stereo not drawn) | 11.4
CCC1CN(C(=O)c2cc(COc3ccccc3F)[nH]n2)CCN1C(C)C (stereo not drawn) | -45.4
CO[C@H]1CN(C)C(=O)c2ccc(NC(=O)c3ccno3)cc2OC[C@@H](C)N(S(C)(=O)=O)C[C@H]1C | 29.0
Cc1ccc(S(=O)(=O)NCc2nc(-c3cccc(Cl)c3)oc2C)cc1C | -24.5
CCC(=O)N1CC2(C1)[C@@H](c1ccc(-c3ccccc3C)cc1)[C@H](CO)N2C(=O)CC | -37.7
O=C(C[C@@H]1CC[C@@H]2[C@H](COC[C@@H](O)CN2C(=O)c2ccncc2)O1)NCc1cc(F)cc(F)c1 | -5.1
Cc1c(NCc2ccccn2)cccc1C(=O)NCCN1CCNC1=O | 5.9
CCOC(=O)c1ccc(NC(=O)CN2C(=O)CCc3cc(S(=O)(=O)N4CCCCC4)ccc32)cc1 | -26.4
COc1cc(Nc2ccnc3cc(Cl)ccc23)c(C(=O)O)cc1OC | -2.7
CC1CCc2c(nc(N)n(CC(=O)Nc3ccc(N4CCCCC4)cc3)c2=O)C1 (stereo not drawn) | 17.7
CC(C)C(=O)NCc1csc(C2CCCN(C(=O)CCc3ccccc3)C2)n1 (stereo not drawn) | -7.8
O=C(Nc1cc(F)ccc1F)N[C@H]1CC[C@@H](CCn2cc(C3CCCCC3)nn2)O[C@H]1CO | -43.1
O=C(NC[C@H]1OC[C@H]2CCN(Cc3ccco3)C[C@H]21)C1CC1 | -0.4
COc1ccc2nc(C)cc(Sc3cc(C)nc4ccc(OC)cc34)c2c1 | 21.3
Cc1ccc(C(=O)N2CCC(N3CCOCC3)CC2C(=O)O)cc1C (stereo not drawn) | -1.3
CC(C)(O)C#Cc1ccc(C(=O)N2CC[C@@H](c3ccc(F)cc3)[C@H](O)C2)o1 | -47.1
CSc1ccc2cc(CN(C)Cc3cnccn3)c(=O)[nH]c2c1 | -0.5
Cc1cccc(Nc2nc(C(=O)Nc3c(C)cccc3C)nc3ccccc23)c1 | -70.1*
Cc1ccccc1-c1ncc(CN2CCC(O)(CO)CC2)cn1 | 6.6
Cc1ccc(NC(=O)c2ccc(CN3CCOCC3)cc2)c(C)c1 | 1.2
Cc1nc(-c2ccc(F)cc2)sc1-c1ccc(SCc2ccccc2Cl)nn1 | -4.2
Cc1cccc(NC(=S)NC(=O)C(C)(C)C)c1 | 152.6
COc1ccc(-c2csnn2)cc1S(=O)(=O)Nc1ccccc1 | 54.6
COc1ccc(Cc2n[nH]c(Cc3ccccc3)n2)c(OC)c1 | 82.9
Cc1ccc(Nc2nc(C(=O)Nc3ccccc3Br)nc3ccccc23)cc1 | -31.9

More results
SMILES | Tgondii IFNg
COCCN1C(=O)CCC12CCCN(C(=O)C1CCOC1)CC2 (stereo not drawn) | -31.9
CCOc1ccc(-c2nc(Cn3ccn4nc(-c5ccc(F)cc5)cc4c3=O)c(C)o2)cc1 | 6.7
CC(C)CN1CCN(Cc2cccn2-c2ccccn2)CC1CCO (stereo not drawn) | 20.3
CCC(=O)NCCc1sc(-c2cccc(F)c2)nc1C | 160.8
CNC(=O)N(O)C1N(c2ccccc2)C(=S)SC1(C)C (stereo not drawn) | 14.7
C[C@@H]1CC(=O)NCC/C=C\C[C@@H](c2cccc(Cl)c2)NC1=O | 7.6
Cc1ccc(-c2nc(Cn3nnc(-c4nc(-c5ccc(F)cc5)no4)c3C)c(C)o2)cc1 | -20.9
O=S1(=O)N=C(C2CCCN(S(=O)(=O)N3CCCC3)C2)Nc2ccccc21 (stereo not drawn) | 10.0
CC(C)(C)OC(=O)N1CCCC(c2ccnc3cc(-c4cccc(F)c4)nn23)C1 (stereo not drawn) | 21.3
COc1ccccc1NC(=O)C(=O)NCCc1sc(-c2cccc(C)c2)nc1C | 56.4
COc1cc(C)c(C)cc1S(=O)(=O)NCCc1sc(-c2ccc(F)cc2)nc1C | 15.9
CCCNC(=O)N[C@@H]1C=C[C@@H](CC(=O)N2CCN(C)CC2)O[C@H]1CO | -7.2
COc1cccc(-c2nc(Cn3ccn4nc(-c5ccccc5)cc4c3=O)c(C)o2)c1OC | 10.2
CCN(CC)Cc1cccc(C(=O)Nc2ccccc2CO)c1 | 4.2
COc1ccc([C@@H]2CC(=O)c3c(O)cc(O)cc3O2)cc1O | -76.9*!
COc1ccc(-n2cccn2)c(C2CC(=O)Nc3cc(O)c(C)cc32)c1 (stereo not drawn) | 2.1
CN(C)CCN1C(=O)CCC12CCN(C(=O)CC1CC1)CC2 | 19.5
c1csc(-c2[nH]ncc2-c2ccnc(N3CCOCC3)n2)c1 | -106.0*
CCOC(=O)c1nc(NCCc2c[nH]c3ccc(Cl)cc23)c2c(C)noc2n1 | 46.7
COc1ccc(C(=O)NCCc2csc(-c3cccc(C)c3)n2)cc1 | i
COC(=O)C(c1ccccc1)N1CCC(O)(c2ccc(C)cn2)CC1 (stereo not drawn) | 4.8
COc1ncccc1CN1CCc2cc(C(=O)O)c(C)nc2CC1 | -16.9
C[C@@H]1CCCCO[C@@H](CN(C)C(=O)Nc2ccc(C(F)(F)F)cc2)[C@H](C)CN([C@H](C)CO)C(=O)c2cc(NS(=O)(=O)c3cn(C)cn3)ccc2O1 | 43.0
CCOc1ccc(-c2nc(Cn3nnc(C(=O)Nc4cccc(Cl)c4)c3C)c(C)o2)cc1 | 27.3
Cn1cc(/C=C/C(=O)N2CCCC(C(=O)c3ccc4c5c(cccc35)CC4)C2)cn1 (stereo not drawn) | -15.6

Some of the entries above, set out differently.
Structure	Tgondii IFNg
Cc1ccc(NC(=O)N2CCC3(CC2)Nc2ccccc2-n2cccc23)c(Cl)c1	339.4
C[C@@H]1CCCCO[C@@H](CN(C)C(=O)Nc2ccc(C(F)(F)F)cc2)[C@H](C)CN([C@H](C)CO)C(=O)c2cc(NS(=O)(=O)c3cn(C)cn3)ccc2O1	43.0
CCC(=O)NCCc1sc(-c2cccc(F)c2)nc1C	160.8
C[C@@H]1CC(=O)NCC/C=C\C[C@@H](c2cccc(Cl)c2)NC1=O	7.6

Entries listed so far that contain a CF3 group:
SMILES | Tgondii IFNg
O=C1OC(C(F)(F)F)N=C1c1ccccc1 (stereo not drawn) | 24.4
C[C@@H]1CCCCO[C@@H](CN(C)C(=O)Nc2ccc(C(F)(F)F)cc2)[C@H](C)CN([C@H](C)CO)C(=O)c2cc(NS(=O)(=O)c3cn(C)cn3)ccc2O1 | 43.0

Later entries
SMILES | Tgondii IFNg
C=CCOC1COC2(CCCN(Cc3ccoc3)C2)C1 (stereo not drawn) | 35.4
Cc1ccc(-c2nc(CNS(=O)(=O)c3ccc(C)c(C)c3)c(C)o2)cc1 | -45.2
COc1ccc(NC(=O)N(C)C[C@@H]2OCc3ccccc3-c3ccccc3C(=O)N([C@@H](C)CO)C[C@H]2C)c(OC)c1 | -49.0
CN(C)CCN1CCCC12CCCN(c1cnccn1)C2 (stereo not drawn) | i
O=C(CO)N1CCC2(CC1)OCCN(c1ncccn1)c1ccccc12 | -25.8
COc1cc(S(=O)(=O)n2cccn2)c(OC)cc1C | 36.5
CN1C(=O)c2cc(NC(=O)Nc3ccccc3F)ccc2OC[C@H]2O[C@H](CC(=O)NCCc3ccncc3)CC[C@H]21 | 9.1
NS(=O)(=O)c1cc2c(cc1Cl)NC(CC1CCCC1)NS2(=O)=O (stereo not drawn) | 32.5
Cc1ccccc1NC(=O)c1ccc2ccc(N3CCN(CC4CC4)CC3)n2c1 | 2.1
CC1=C(C(=O)NCCN(CC(C)C)CC(C)C)C2(CCN(S(C)(=O)=O)CC2)OC1=O | 15.9
CCOc1ccc(-c2nc(Cn3nnc(C(=O)Nc4ccccc4F)c3C)c(C)o2)cc1 | 25.8
O=C(c1ccccc1F)N1C[C@H]2[C@@H](c3ccccc31)[C@H](CO)N2C(=O)Nc1ccccc1 | 1.3
Cc1ccc(N2CCN(c3ccc(C)cc3)C2c2cccs2)cc1 | 37.6
O=C(COC(=O)c1ccco1)c1ccccc1 | -40.9
CN1CCCCC[C@@H]2[C@@H]1[C@H](c1ccccc1)CN2S(=O)(=O)c1cccnc1 | -3.7
CCN1CCC(CNS(=O)(=O)c2cccc(C(=O)NC)c2)C1 (stereo not drawn) | -3.7
COc1ccc(NC(=O)Cn2ncc3c(N4CCCC4)ncnc32)c(OC)c1 | 174.1

Assay outcomes deposited in PubChem by Broad Institute.
